Screening data (PubChem BioAssay)
Vaccinia mCherry = vaccinia inhibition (mCherry reporter); Potency, µM (doses to about 36.5 µM), without a hit: at the highest dose activity change, negative = inhibition, actives largely listed as inhibitors; Vaccinia virus mCherry reporter infection, fluorescence; about a quarter of the inactives have no number; actives 0.63% (n = 310,000); active = well fitted inhibition curve with a large enough effect; inconclusive = small, poorly fitted or top-dose-only effect; inactive = no such curve, though single readings can be large or run the other way; tested in A549 cells; also: nearly all actives have a fitted effect of over 35% in size; inactives centre near -10
Vaccinia Venus = vaccinia inhibition (Venus reporter) | Vaccinia virus Venus reporter expression, fluorescence | actives 0.46% (n = 330,000) | Potency, µM (titrated, usually from 36.5 µM), for inactives: top-dose activity change, negative = inhibition, hits mostly inhibitors | AID 720580; active means well fitted inhibition curve with a large enough effect; inconclusive means small, poorly fitted or top-dose-only effect; inactive means no such curve, though single readings can be large or run the other way; tested in A549 cells; also: nearly all actives have a fitted effect of over 30% in size; inactives centre near -10
Starred values were filed as active, the others as inactive; i = inactive; ? = inconclusive; · = no result given; [ ] = remark or other dose. % is scaled to controls: 0 for no effect and ±100 for the full control effect; potency is read from the fitted curve at half-maximal effect.

SMILES	Vaccinia mCherry	Vaccinia Venus
Cc1oc2ncn(CC(C)C)c(=O)c2c1C(=O)NCCc1ccccc1	-22%	-9%
COc1cc(Cl)ccc1OCc1cc(C(=O)N(C)Cc2cccc3cnccc23)no1	-22%	-9%
COc1ccccc1C(=O)Nc1ccc(S(=O)(=O)N2CCOCC2)cc1	·	2%
Cc1ccc(NC(=O)C(=O)NCc2ccc(/C=N/NC(=O)c3c(C)nc4ccccn34)o2)cc1	-7%	-18%
Cc1cc(S(=O)(=O)NCc2ccccc2)ccc1OCC(=O)NCc1ccccn1	-15%	-1%
O=C(/C=C/c1ccccc1)Nc1cc(S(=O)(=O)N2CCOCC2)ccc1N1CCOCC1	-18%	-14%
O=C(Cc1ccc(-n2c(=O)c3ccccc3n(Cc3ccc(F)cc3)c2=O)cc1)NCC1CCCO1 (configuration not stated)	-15%	-7%
COCCN(C(=O)CSc1nncn1-c1ccccc1)c1c(N)n(Cc2ccccc2)c(=O)[nH]c1=O	-15%	2%
Cc1ccc(-n2nc(C)c3c2OC(N)=C(C#N)C3c2ccco2)cc1 (configuration not stated)	·	0%
O=C(NC1CCCC1)C(c1ccc(F)cc1)N(Cc1ccc(Cl)cc1)C(=O)CCl (configuration not stated)	i	-21%
CCCN(CCC)C(=O)NC1CC(=O)N(c2ccc(OC)cc2)C1 (configuration not stated)	i	-5%
COC(=O)C1CC2(C(=O)OC)CC(C(=O)OC)(CC(C(=O)OC)C2=O)C1=O (configuration not stated)	i	-10%
O=C(N/N=C/c1ccc([N+](=O)[O-])cc1)c1cc2ccccc2o1	0%	-15%
O=C(O)c1ccc2c(c1)N(Cc1ccccc1)C(=O)c1ccccc1S2=O (configuration not stated)	42%[activator]	3%
NC(=O)CC(NC(=O)c1ccc(Br)cc1)c1ccc(NC2CCCCCC2)c([N+](=O)[O-])c1 (configuration not stated)	?	?
C#CCOCCOCCOCCNc1nc(N2CCN(C(=O)[C@H](CCC(=O)O)n3cc([C@@H](N)[C@H](C)CC)nn3)CC2)nc(N2CCN(C(=O)[C@H](CCC(=O)O)n3cc([C@@H](N)CCSC)nn3)CC2)n1	i	-7%
CC1CCN(S(=O)(=O)c2ccc(NC(=O)C3CCCCC3C(=O)O)cc2)CC1 (configuration not stated)	i	-15%
CC(C)Oc1ccc(CNC(=O)c2cnc3sc(N4CCCCCC4)nn3c2=O)cc1	-10%	-9%
Cc1ccc(C2NC(=O)c3sc(=S)n(-c4ccccc4)c3N2)cc1 (configuration not stated)	-24%	-1%
CC(Cc1cccs1)NC(=S)Nc1ccc(Cl)cc1 (configuration not stated)	-19%	-19%
COc1ccc(-c2cc(C(F)(F)F)nc(-n3ccnc3C)n2)cc1	-3%	-6%
O=C(CNC(=O)c1ccc2c(c1)OCO2)N/N=C/c1cc(Br)ccc1O	1.6µM*	?
CC(C)(C)c1ccc(C(=O)Nc2nonc2-c2nc3ccccc3[nH]2)cc1	·	?
CC(OC(=O)c1ccc2ncsc2c1)C(=O)N(C)C1CCCCC1 (configuration not stated)	-12%	0%
C=CCNc1nc(=S)[nH]c2cc(OC)c(OC)cc12	i	-22%
SMILES	Vaccinia mCherry	Vaccinia Venus
Cc1cc(C)nc(S[C@H]2C[C@@H](C(=O)N3CCN(c4ccccc4F)CC3)N(Cc3ccccc3F)C2)n1	-8%	0%
Cc1noc(/C=C/N(C)C)c1S(=O)(=O)N1CCCC(C(=O)NCc2ccc(Cl)cc2)C1 (configuration not stated)	-13%	-14%
COc1cc(/C=N/NC(=O)c2cnn3c(C)cc(-c4ccccc4)nc23)ccc1O	·	-7%
S=c1[nH]ncc2ccccc12	i	-2%
CCCn1cc(S(=O)(=O)c2cccc(Cl)c2)c(=O)c2cc(F)c(N3CCCC3)cc21	-9%	-22%
COc1ccc(S(=O)(=O)NCC2CC3C=CC2C3)cc1OC (configuration not stated)	i	-10%
O=C(OC1CCS(=O)(=O)c2sccc21)c1ccccc1 (configuration not stated)	·	-24%
CCCn1nnc(NC(=O)c2cc(Br)ccc2OC)n1	-7%	2%
CCC/C(C#Cc1ccsc1)=C1/c2ccccc2C(=O)N1c1ccccc1	?	-8%
COC(c1ccc2c(c1)CN(C(=O)Cn1nc(C)c3ccccc3c1=O)CCO2)C1CCCCC1 (configuration not stated)	-18%	-8%
O=C(CN1C(=O)C(c2ccc(F)cc2)=NC12CCCCCC2)Nc1ccccc1Cl	-4%[7.34 µM]	-3%[7.34 µM]
O=C(NCc1ccccc1)c1nc2ccccc2s1	i	-17%
Cc1cccc(OCC(=O)NCc2cc(C)nc3ccccc23)c1	-5%	-14%
COc1ccc(C(C)=O)cc1Cn1c(C)c(C(=O)NCc2cccc(C(F)(F)F)c2)sc1=O	i	-14%
C=CCSC1=N/C(=C\c2ccc3c(c2)OCO3)C(=O)S1	·	-4%
Cc1cc(C)c(NC(=O)c2ccc(S(=O)(=O)N3CCOCC3)cc2)c(C)c1	9%	3%
CC1CCN(S(=O)(=O)c2ccc3c(c2)c(=O)c(C(=O)NCc2ccc(Cl)cc2)cn3C)CC1	-3%	-30%
O=S(=O)(O)c1ccc(O)c2cc(Nc3ccccc3)ccc12	-9%	9%
O=C(NCCc1ccccc1)c1cc2ncc(Br)cn2n1	·	6%
CCOc1ccccc1NC(=O)COC(=O)CC(NC(N)=O)c1ccc(Cl)cc1 (configuration not stated)	-15%	-3%
O=C(O)CSc1nnc(-c2cccc(S(=O)(=O)N3CCCCC3)c2)o1	9%	-3%
COc1ccc(CN2CCn3ncc(C(=O)Nc4cc(C)cc(C)c4)c3C2=O)cc1	·	?
Cc1cc(C(C#N)c2cccc(Cl)c2)n2ncnc2n1 (configuration not stated)	·	-8%
COc1cccc(C(NC(C)=O)c2nc(-c3cc4ccccc4o3)cs2)c1 (configuration not stated)	-16%	-21%
COc1cc(O)c2c(c1)COC2=O	-5%	-4%
SMILES	Vaccinia mCherry	Vaccinia Venus
Cc1n(Cc2ccccc2)c2ccccc2[n+]1Cc1ccccc1	-9%	-24%
CNC(=O)NC(=O)COC(=O)CCc1nc(=O)c2ccccc2n1C	-3%	-3%
CCNC(=O)COc1ccc(/C=N/NC(=O)c2cccnc2)cc1OC	-12%	-16%
COc1ccc(NC(=O)C2CC2)cc1-n1cnnn1	-19%	-10%
COc1ccccc1S(=O)(=O)N(C)C[C@H]1OCc2cnnn2CCCC(=O)N([C@@H](C)CO)C[C@@H]1C	i	-6%
CSc1ccc(CCNC(=O)C2CCN(c3nnc(-n4cccc4)s3)CC2)cc1	i	-11%
Cc1ccc(NC(=O)c2ccccc2N2C(=O)C3C4C=CC(C5CC45)C3C2=O)cc1C (configuration not stated)	-16%	-17%
COc1cc(C#N)ccc1OC(=O)Cc1cc(OC)c(OC)c(OC)c1	-17%	-6%
C/C(CC(=O)NC1CCCCC1)=N\NC(=O)c1ccc(Br)cc1	0%	-8%
O=c1c2nnn(-c3ccc(Br)cc3)c2ncn1Cc1ccccn1	5%	2%
COc1ccc(NC(=S)NN(C)C(=S)Nc2ccc(OC)cc2)cc1	?	?
CCC(C(=O)N1CCOCC1)n1c2ccccc2c2nc(=O)cc(C)n21 (configuration not stated)	2%	-3%
O=C(NC1CCCC1)C1CCCN1C(=O)Nc1ccccc1 (configuration not stated)	i	-3%
CC1CN(C(=O)Cn2c(=O)oc3ccccc32)CC(C)O1 (configuration not stated)	-3%	-1%
CCN(CC)C(=O)C1=C(C)N(CCCOC)C(=O)C(CC(=O)NCCN2CCOCC2)C1 (configuration not stated)	i	-1%
O=C(CCCN1C(=O)/C(=C\c2ccco2)SC1=S)Nc1ccc(O)cc1C(=O)O	i	31%[activator]
Cc1nc(OCc2ccccc2)c2sc3nc4c(cc3c2n1)COC(C)(C)C4	-20%	?
CC(C)c1cccc(C(C)C)c1NC(=O)COc1nncc2ccccc12	3%	9%
COP(=O)(OC)/C(C=O)=N/Nc1ccc([N+](=O)[O-])cc1	i	-20%
COc1ccc(CN(Cc2ccc(C(=O)O)cc2)C(=S)Nc2ccc(C)cc2)cc1OC	i	-10%
O=C1c2ccccc2C(=O)N1Cc1nc(-c2ccccn2)no1	-8%	-6%
COc1ccc(CNC(=O)C2(CC3CC(c4ccccc4)=NO3)CCNCC2)cc1 (configuration not stated)	-5%	-5%
COc1ccc(C2=CC(=O)C[C@H](c3ccc(Cl)cc3)C2)cn1	-27%	-24%
CS(=O)(=O)Nc1ccc(-c2cnc3cccnn23)cc1	-2%	-8%
CCN(CC)S(=O)(=O)c1cccc(C(=O)NCC2CCCCC2)c1	?	-28%
SMILES	Vaccinia mCherry	Vaccinia Venus
COc1ccc(-c2ccc3nncn3c2)cn1	22%	-8%
NC(=O)c1nsc(C(=O)N(CC(=O)NC2CCCC2)c2ccc(F)c(Cl)c2)c1N	i	-11%
COCCCNC(=O)CC(NCCCOC)C(=O)O (configuration not stated)	-9%	-5%
O=C(CCC1CCCCC1)Nc1c2c(nn1-c1ccc(F)cc1)CS(=O)C2 (configuration not stated)	-12%	-8%
CCOc1ccc(CNC(=O)c2ccc3nc(Cc4ccc(OC)cc4)oc3c2)cc1OC	-10%	-5%
O=C(COc1ccc([N+](=O)[O-])cc1)NC(C(=O)O)C(O)c1cccc([N+](=O)[O-])c1 (configuration not stated)	-3%	-3%
CCOCCCn1c(C)nc2c(c1=O)c1nc3ccccc3nc1n2CCC1=CCCCC1	·	-10%
CN(C)/N=C/c1ccc(Sc2ccc([N+](=O)[O-])cc2[N+](=O)[O-])o1	-16%	0%
Cc1onc(-c2ccccc2)c1C(=O)NCc1cccc(Cl)c1	-4%	-4%
c1ccc2nc(N3CCCC3)c(N3CCCC3)nc2c1	-3%	-8%
O=C(Nc1ccccc1-c1nc2ccccc2[nH]c1=O)c1cccs1	-1%	0%
O=C(c1cccs1)N1C[C@@H](n2cc(-c3ccc(F)cc3)nn2)[C@H](O)C[C@@H]1c1ccc(Cl)cc1	-16%	-11%
Cc1cccc(-n2nc(C)c3c(C(=O)O)cc(-c4cccs4)nc32)c1	-3%	-7%
Cc1cccc(C)c1NC(=O)CN1C(=O)S/C(=C\c2cccn2C)C1=O	i	-4%
CN(C)C(=O)c1ccc(OCC(F)(F)F)nc1	i	-15%
COc1cccc(COC(=O)c2cc(S(=O)(=O)N3CCCCC3)ccc2N2CCOCC2)c1OC	i	3%
O=C(CNC(=O)c1ccc(Cl)cc1Cl)OCn1nnc2ccccc2c1=O	-18%	-13%
COc1ccc(CNC(=O)Cn2cnc3c(OCc4ccccc4)ncnc32)cc1	-14%	-11%
Cn1c(=O)[nH]c(Nc2ccccc2)c([N+](=O)[O-])c1=O	-12%	-1%
CC(C)CNC(=O)/C=C/C=C/c1ccc2c(c1)OCO2	1%	-4%
Cc1cccc(Cn2c(SCc3ccc(C(=O)NC4CCCC4)cc3)nc3ccncc32)c1	-28%	?
O=C(CSc1nc2ccccc2n1Cc1ccccc1)N/N=C/c1ccccc1C(=O)O	?	3%
CC(SC(C)C(=O)NN=Cc1ccc(F)cc1)C(=O)NN=Cc1ccc(F)cc1 (configuration not stated)	?	-4%
CCN(CC)CCOc1nnc(-c2ccc(C)cc2)c2ccccc12	?	?
C[C@H]1CN([C@@H](C)CO)C(=O)c2cc(-c3cccc(C(=O)N(C)C)c3)cnc2O[C@H]1CN(C)C(=O)Cc1ccccn1	-4%	-9%
SMILES	Vaccinia mCherry	Vaccinia Venus
CCOCCCNC(=S)NC1CC2CCC(C1)N2Cc1ccccc1 (configuration not stated)	-8%	-2%
Nc1cc(C(=O)O)ccc1N1CCCCC1	·	-19%
CC(=O)c1ccc(N2CCN(S(=O)(=O)c3cn(C)c(C)n3)CC2)cc1	-19%	-4%
Clc1ccc(-c2nc3c4ccccc4ccn3c2Cc2ccccc2)cc1	?	-7%
O=[N+]([O-])c1cccc(NC(=S)NCc2ccncc2)c1	-16%	-19%
CCOc1ccccc1N1CC(C(=O)Nc2c(C)n(C)n(-c3ccccc3)c2=O)CC1=O (configuration not stated)	i	-15%
C=CCN=C(C)C1=C(O)C(C)OC1=O (configuration not stated)	-10%	-3%
O=C(N/N=C/c1ccc(Br)s1)c1cccs1	-26%	-11%
CCOC(=O)C1CCN(c2c(C(=O)c3ccccc3)cnc3ccc(Cl)cc23)CC1	-8%	-4%

A second format for 14 compounds above:
structure | Vaccinia mCherry | Vaccinia Venus
Cn1c(=O)[nH]c(Nc2ccccc2)c([N+](=O)[O-])c1=O | -12% | -1%
CC(C)CNC(=O)/C=C/C=C/c1ccc2c(c1)OCO2 | 1% | -4%
Cc1cccc(Cn2c(SCc3ccc(C(=O)NC4CCCC4)cc3)nc3ccncc32)c1 | -28% | ?
O=C(CSc1nc2ccccc2n1Cc1ccccc1)N/N=C/c1ccccc1C(=O)O | ? | 3%
CC(SC(C)C(=O)NN=Cc1ccc(F)cc1)C(=O)NN=Cc1ccc(F)cc1 (configuration not stated) | ? | -4%
CCN(CC)CCOc1nnc(-c2ccc(C)cc2)c2ccccc12 | ? | ?
C[C@H]1CN([C@@H](C)CO)C(=O)c2cc(-c3cccc(C(=O)N(C)C)c3)cnc2O[C@H]1CN(C)C(=O)Cc1ccccn1 | -4% | -9%
CCOCCCNC(=S)NC1CC2CCC(C1)N2Cc1ccccc1 (configuration not stated) | -8% | -2%
Nc1cc(C(=O)O)ccc1N1CCCCC1 | · | -19%
CC(=O)c1ccc(N2CCN(S(=O)(=O)c3cn(C)c(C)n3)CC2)cc1 | -19% | -4%
Clc1ccc(-c2nc3c4ccccc4ccn3c2Cc2ccccc2)cc1 | ? | -7%
O=[N+]([O-])c1cccc(NC(=S)NCc2ccncc2)c1 | -16% | -19%
CCOc1ccccc1N1CC(C(=O)Nc2c(C)n(C)n(-c3ccccc3)c2=O)CC1=O (configuration not stated) | i | -15%
C=CCN=C(C)C1=C(O)C(C)OC1=O (configuration not stated) | -10% | -3%
